Bioassay records: PubChem, National Center for Advancing Translational Sciences (NCATS)
CtBP-E1A inh = inhibitors of CtBP/E1A interaction | AlphaScreen GST-E1A/His-CtBP binding, 1536-well; active compounds read low; control for the full effect not named in the record | AID 651724 | actives 0.49% (n = 340,000) | activity change, % (test concentration not listed); in the data active means activity change below about -65%; inconclusive means about -30% to -65%; inactive means above about -30%; further: on the % scale 0 is the no-effect control and ±100 the full control effect
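AlphaScreen with 125 nM GST-E1A and 125 nM His-CtBP (5X stocks) in Tris pH 8.0, 300 mM NaCl, BSA, Tween 20, TCEP. Compounds preincubated 2 h at 37 deg C, then glutathione donor/nickel acceptor beads added for 1 h at 37 deg C in dark.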
D2 potentiator = potentiates the human D2 dopamine receptor allosterically; AID 624464; potentiation, % (no concentration beside the values); actives 0.23% (n = 360,000); DiscoveRx D2 beta-arrestin cells, luminescence, 90 min; 100% = 57 uM dopamine signal; active = potentiation of 50% or more; inconclusive = 30% to 50%; inactive = 30% or less;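 further: compound concentration not given in the record; tested on top of an EC20 dose of dopamine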
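PathHunter beta-arrestin assay in DiscoveRx D2 cells. Compounds were added with an EC20 of dopamine (50 nM final) for 90 min at 37 deg C. Luminescence was read 1 h after detection reagent, with 57 uM dopamine as the EC100 control.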
Six1-Eya2 inh = Six1/Eya2 interaction inhibition. AlphaScreen GST-Six1/His-Eya2 binding, biochemical; active compounds read low; control for the full effect not named in the record. AID 651725. actives 0.56% (n = 360,000). activity change, % (no concentration beside the values). Q15475+O00167; in the data active = activity change below about -65%; inconclusive = about -30% to -65%; inactive = above about -30%; further: on the % scale 0 is the no-effect control and ±100 the full control effect
Target sequence (O00167 whole entry, looked up): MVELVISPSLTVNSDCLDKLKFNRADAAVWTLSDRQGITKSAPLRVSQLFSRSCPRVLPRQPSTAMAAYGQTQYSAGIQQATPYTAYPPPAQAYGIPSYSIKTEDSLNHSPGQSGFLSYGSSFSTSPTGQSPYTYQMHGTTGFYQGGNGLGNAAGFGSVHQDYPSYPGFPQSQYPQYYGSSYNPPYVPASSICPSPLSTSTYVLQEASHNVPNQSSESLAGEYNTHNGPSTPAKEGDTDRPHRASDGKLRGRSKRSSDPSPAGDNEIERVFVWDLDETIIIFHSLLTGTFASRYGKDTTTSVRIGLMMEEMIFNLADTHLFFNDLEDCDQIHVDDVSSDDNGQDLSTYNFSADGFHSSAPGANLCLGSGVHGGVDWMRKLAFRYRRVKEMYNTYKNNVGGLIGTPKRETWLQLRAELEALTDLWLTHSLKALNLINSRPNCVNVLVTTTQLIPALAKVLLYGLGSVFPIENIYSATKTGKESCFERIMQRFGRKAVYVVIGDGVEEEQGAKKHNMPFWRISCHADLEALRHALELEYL
Target sequence (Q15475 whole entry, looked up): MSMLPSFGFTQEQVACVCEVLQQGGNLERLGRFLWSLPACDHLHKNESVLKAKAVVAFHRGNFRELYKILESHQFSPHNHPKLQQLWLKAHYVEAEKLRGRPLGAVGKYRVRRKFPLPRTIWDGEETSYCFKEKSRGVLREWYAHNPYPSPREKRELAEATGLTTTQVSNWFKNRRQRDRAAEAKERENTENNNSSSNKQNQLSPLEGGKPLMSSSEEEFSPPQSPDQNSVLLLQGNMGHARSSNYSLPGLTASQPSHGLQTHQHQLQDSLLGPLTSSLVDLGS
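AlphaScreen with GST-Six1 and His-Eya2 (5X mix: 250 nM and 500 nM), glutathione donor and nickel acceptor beads; buffer 50 mM Tris pH 8.0, 300 mM NaCl, 1 mM TCEP; 1 h at 37 C in the dark.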
gsp antag = antagonizes gsp, the McCune-Albright syndrome mutation; AID 624288; actives 0.4% (n = 340,000); Potency, µM (series often up to 76.9 µM), for the others: at the top dose activity change, negative = inhibition, most hits filed as inhibitors; gsp-mutant cells, cAMP HTRF, 30 min; control for the full effect not named in the record; active = falling curve of any shape with a large fitted effect; inconclusive = falling curve, mostly with a smaller effect; inactive = flat or rising curve; cell line not stated here;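 further: intracellular cAMP measured with PDE inhibitor Ro 20-1724 present during compound exposure; potency means the concentration at half of the fitted maximal effect; on the % scale 0 is the no-effect control and ±100 the full control effect; nearly all actives have a fitted effect of over 65% in size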
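G418-selected cells were plated in DMEM/10% FBS for 16-24 h at 37C, then treated with compounds plus the PDE inhibitor […] (300 uM solution added) for 30 min at 37C. Intracellular cAMP was measured by HTRF after 30 min lysis at room temperature.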
D2 agonist = activates the human D2 dopamine receptor; P14416; DiscoveRx PathHunter D2 beta-arrestin, luminescence, 90 min; 100% = 57 uM dopamine signal; activation, % (no concentration beside the values); actives 0.084% (n = 360,000); in the data active = activation above about 40%; inconclusive = about 15% to 40%; inactive = below about 15%; further: compound concentration not given in the record; the text of the record calls up to 30% inactive
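DiscoveRx PathHunter D2 beta-arrestin cells (2,100/well) attached overnight, then compound-stimulated 90 min at 37 C in HBSS/10 mM HEPES/0.1% Tween-20 buffer; beta-galactosidase complementation read by luminescence after 1 h at ambient temperature. Dopamine 57 uM final (EC100) as control.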
gsp agonist = gsp mutant agonism. gsp mutant cells, cAMP HTRF, 30 min; control for the full effect not named in the record. Potency, µM (highest dose often 76.9 µM), for inactives: top-dose activation (cAMP increase), actives largely listed as activators. actives 0.13% (n = 340,000); active = well fitted activation curve with a large enough effect; inconclusive = small, poorly fitted or top-dose-only effect, or another doubt; inactive = no such curve, though single readings can be large or run the other way; cell line not stated here;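 further: phosphodiesterase inhibitor Ro 20-1724 added with compounds to block cAMP breakdown; potency means the concentration at half of the fitted maximal effect; nearly all actives have a fitted effect of over 60% in size; about a fifth of the inactives were tested at one dose only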
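Cells in DMEM/10% FBS with G418 were pretreated with compounds in DMSO plus […] (300 uM stock) for 30 min at 37C. cAMP was measured by HTRF (cAMP-d2 plus anti-cAMP antibody-K) after 30 min at room temperature.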
* hit, by the source's call; ? = inconclusive; nt = not tested or not shown; [ ] = remark or other dose.

SMILES	CtBP-E1A inh	D2 potentiator	Six1-Eya2 inh	gsp antag	D2 agonist	gsp agonist
Cc1cc(C)c(C)c(S(=O)(=O)N2CCC(C(=O)N3CCCCCCC3)CC2)c1C	-19	-16	-6	-21%	-3.0	28%
O=C(CS(=O)(=O)c1c[nH]c2ccccc12)N1CCCc2ccccc21	-4	0	3	-13%	2.9	-37%[inhibitor]
CC/C(=N\NC(=O)c1nnn(-c2nonc2N)c1-c1cccs1)c1ccccc1	0	1	1	-22%	0.4	?
COc1ccc(OC)c(Cc2cnc3nc(N)nc(N)c3c2C)c1	-1	-17	-3	-2%	-2.8	2%
COc1ccc(C(C)C)cc1-c1cc(C(=O)NCc2cccc(C(F)(F)F)c2)[nH]n1	1	-12	6	nt	-1.2	nt
N#Cc1ccc(NC(=O)CNc2cc(S(=O)(=O)N3CCOCC3)ccc2NCC2CCCO2)cc1 (centres undefined)	2	-14	4	-20%	-1.7	-2%[15.4 µM]
Cc1cc(NC(=O)c2cc3ccccc3o2)cc(C)c1OCC(=O)N1CCOCC1	7	10	0	?	1.0	-15%
CC(C)NCCCCOc1cccc(Br)c1	1	-16	2	4%	-4.1	-9%[15.4 µM]
CC(C)C(NC(=O)C1CCCCC1)C(=O)N1CCN(c2ccc(F)cc2)CC1 (centres undefined)	3	-21	3	10%	-3.0	-46%[inhibitor]
Cn1c(=O)[nH]c(NCCc2ccc(O)cc2)c([N+](=O)[O-])c1=O	-16	-6	?	7%	-0.4	3%[15.4 µM]
O=C(O)c1cccnc1SCc1cn2cc(Br)ccc2n1	nt	0	3	-4%	2.4	28%[15.4 µM]
COc1ccc(C(C)=O)cc1COC(=O)c1cc(C)nc2ccccc12	1	-2	5	5%	-0.8	-3%
O=C(O)c1cccc(-n2cccc2/C=N/O)c1	4	-14	-30	7%	-1.9	19%
N#Cc1ccccc1S(=O)(=O)N1CCN(C(=O)C2CCC2)CC1	3	5	0	9%	1.6	14%
CCC(C)(C#CCN1CCCCC1)OC(C)=O (centres undefined)	4	-12	5	5%	-1.9	12%[15.4 µM]
CC(C)(C)n1cn[nH]c1=S	0	0	1	4%	2.0	-11%
COc1cc(C(=O)NC(C)c2ccc(S(N)(=O)=O)cc2)ccc1OCC(=O)N1CCOCC1 (centres undefined)	11	-17	3	10%	-2.9	?
O=C(Nc1ccc(CSc2ccccc2)cc1)c1ccco1	6	5	9	-5%	11	?
O=C(c1ccc(S(=O)(=O)c2ccccc2)cc1)N1CCCCCC1	5	-7	9	7%	1.5	-18%
O=C(OCc1cn([C@H]2C[C@H](c3ccccc3)N(CC3CCCCC3)C[C@@H]2O)nn1)c1ccccc1	-6	nt	-1	nt	-0.5	-14%
COc1cc(C2C3=C(CC(C)(C)CC3=O)NC3=C2C(=O)c2ccccc23)ccc1O (centres undefined)	-9	-5	-10	-14%	-4.9	8%[15.4 µM]
Cc1nc2ccccc2n2c(-c3ccccc3)c3c(=O)n(C)c(=O)n(C)c3c12	49	-2	43	12%	-8.2	-1%[15.4 µM]
Cn1cc(C(=O)N2CCN(c3cccc(Cl)c3)CC2)c(=O)c2cc(S(=O)(=O)N3CCOCC3)ccc21	-6	-11	-7	4%	4.8	2%
CCN1CCS/C1=C/C=C/C1=[N+](CC)CCS1	6	-32	0	-30%	-1.8	0%
CCN(c1ccccc1)S(=O)(=O)c1ccc2c(c1)CCCN2C(C)=O	5	-14	7	-1%	-0.7	?
Cc1ccc(N=C2NC(=O)/C(=C/c3cccn3C)S2)c(C)c1	-29	-15	?	-21%	-6.0	-7%[15.4 µM]
CCCOc1ccc(C(=O)NNC(=S)NC(C)=O)cc1	-7	-24	-5	1%	-5.8	?
CC(=O)Nc1ccc(CN2C(=O)C(Cc3ccccc3)ON=C2c2ncccc2C)cc1 (centres undefined)	1	-4	-2	nt	-4.9	nt
Cc1nc2ccc(C(=O)Nc3ccccc3Cl)cc2s1	nt	-15	-7	-5%	4.5	13%
O=C(O)CCC(=O)Nc1cccc(-c2nnc(-c3ccccc3)o2)c1	nt	-15	-7	7%	1.8	25%
CCOC(=O)C1(C)CCN1C(=O)/C=C/c1ccccc1 (centres undefined)	1	-4	1	nt	-4.3	nt
O=C(Nc1nnc(-c2ccc(Cl)s2)o1)C1CCCCC1	18	-9	16	1%	-5.8	20%
O=C(COC(=O)CNS(=O)(=O)c1ccc(Br)cc1Cl)NC1CC1	6	26	7	-8%	3.8	-1%[15.4 µM]
CCc1ccc(C(c2ccc(CC)cc2)C(Cl)Cl)cc1	66	-4	22	-11%	2.9	nt
CC(=O)Nc1ccc(S(=O)(=O)N(C)C2CCN(C)CC2)cc1	3	-20	3	9%	-2.2	-5%[15.4 µM]
COc1ccc(S(=O)(=O)N2CCCCC2C(=O)O)cc1OC (centres undefined)	4	2	1	7%	0.8	-30%
COc1ccc(-c2nn3c(=O)c(C)nnc3s2)cc1	6	-5	-3	1%	-2.7	?
CCOC(=O)N1CCN(C(=O)c2ccccc2NC(=O)COc2ccccc2C)CC1	-6	-6	6	-11%	-4.4	-25%
COC(=O)c1ccccc1NC(=S)NC(=O)COc1ccc(C(C)C)cc1	14	-6	13	-3%	-3.4	?
Cc1nc(NS(=O)(=O)c2cccc([N+](=O)[O-])c2)sc1C(C)(C)C	nt	0	-3	-16%	9.6	-24%

5 entries from above, with values ahead of the structure.
CtBP-E1A inh	D2 potentiator	Six1-Eya2 inh	gsp antag	D2 agonist	gsp agonist	SMILES
1	-4	-2	nt	-4.9	nt	CC(=O)Nc1ccc(CN2C(=O)C(Cc3ccccc3)ON=C2c2ncccc2C)cc1 (centres undefined)
-29	-15	?	-21%	-6.0	-7%[15.4 µM]	Cc1ccc(N=C2NC(=O)/C(=C/c3cccn3C)S2)c(C)c1
nt	0	-3	-16%	9.6	-24%	Cc1nc(NS(=O)(=O)c2cccc([N+](=O)[O-])c2)sc1C(C)(C)C
nt	-15	-7	7%	1.8	25%	O=C(O)CCC(=O)Nc1cccc(-c2nnc(-c3ccccc3)o2)c1
-6	nt	-1	nt	-0.5	-14%	O=C(OCc1cn([C@H]2C[C@H](c3ccccc3)N(CC3CCCCC3)C[C@@H]2O)nn1)c1ccccc1

Whole records, looked up by structure.
Shown for COc1ccc(-c2nn3c(=O)c(C)nnc3s2)cc1 = CtBP-E1A inh = 6; D2 potentiator = -5; Six1-Eya2 inh = -3; gsp antag = 1%; D2 agonist = -2.7; gsp agonist = ?
Shown for COC(=O)c1ccccc1NC(=S)NC(=O)COc1ccc(C(C)C)cc1 = CtBP-E1A inh = 14; D2 potentiator = -6; Six1-Eya2 inh = 13; gsp antag = -3%; D2 agonist = -3.4; gsp agonist = ?

(list continues)
SMILES	CtBP-E1A inh	D2 potentiator	Six1-Eya2 inh	gsp antag	D2 agonist	gsp agonist
COc1ccc(NC(=O)CN(C)C(=O)c2c(C)nn(-c3ccccc3)c2Cl)cc1	5	-5	1	1%	-1.9	29%[15.4 µM]
C=CCN1CCN(C(=O)c2ccc3c(c2)OCO3)CC1	4	-13	7	22%	-4.3	7%
CCC(C)n1c(SCc2ccc([N+](=O)[O-])cc2)nc2ccsc2c1=O (centres undefined)	1	-4	-26	-3%	-2.6	4%[15.4 µM]
COCCCN(Cc1ccccn1)S(=O)(=O)Cc1ccccc1	2	-12	2	-7%	-0.8	3%
COc1ccc(C(=O)Nc2ncc(C)s2)cc1S(=O)(=O)N1CCCC1	4	-6	11	-13%	-3.6	3%[15.4 µM]
COCCN1CCN(c2c(C)c(C)nc3cc(-c4cccc(OC)c4)nn23)CC1	-15	-4	10	2%	0.0	-12%[15.4 µM]
O=C(CCC1CCCCC1)NCCN1C2=NC[C@H](Cc3ccccc3)N2C[C@H]1Cc1ccc(O)cc1	-24	-16	0	0%	-2.7	nt
c1ccc(CCn2nnnc2C(c2cccnc2)N2CCOCC2)cc1 (centres undefined)	4	-3	14	7%	-5.9	-1%[15.4 µM]
CN1CCN(C(=O)CCc2ncc(C(F)(F)F)cc2Cl)CC1	6	-1	9	3%	-4.1	10%[15.4 µM]
COc1ccc(NC(=O)N2CCCCCC2)cc1OC	3	-3	11	?	2.6	0%
CC(C)Oc1ccc(C(CC(=O)O)NC(=O)CSc2ncn[nH]2)cc1 (centres undefined)	-3	2	9	3%	-0.5	-35%[inhibitor]
O=C(Nc1ccccc1C(=O)N1CCCCC1)c1cc(F)c(F)cc1Cl	-2	-4	5	7%	2.3	8%
COc1ccc(OC)c(/C=C(\NC(=O)c2ccccc2)C(=O)N/N=C/c2ccc(C)s2)c1	9	-10	-15	-11%	-4.2	4%
Cc1cccc(S(=O)(=O)NCCC(=O)OCC(=O)Nc2ccc(C#N)cc2)c1	-14	-4	-13	-12%	-3.0	-9%
NC(=O)NCC1CC1	-15	-1	-7	-5%	-0.8	nt
O=C(COc1ccc(Cl)cc1)Nc1c(-c2cccs2)nc2ccccn12	2	-8	0	2%	0.1	-16%
O=C1CCN(Cc2ccccc2)CCN1[C@H](COc1ccccc1)Cc1ccccc1	-25	-5	-19	-21%	7.9	nt
Cc1ccc(-c2csc(NC(=O)CN3C(=O)CCC3=O)n2)cc1	2	0	6	9%	0.7	-40%[inhibitor]
CCOC(=O)N1CCN(S(=O)(=O)c2ccc3c(c2)SCC(=O)N3)CC1	7	-20	4	9%	-5.9	4%[15.4 µM]
OC1(c2ccccc2)Cc2cccc[n+]2C1c1ccccc1 (centres undefined)	nt	-18	6	-5%	-6.2	9%
O=C(CSc1nnc(CCc2ccccc2)n1-c1ccc(Cl)cc1)c1ccccc1	3	-21	-4	-18%	11	?
Cc1c(N(C)C(=O)c2ccc3c(c2)OCO3)c(=O)n(-c2ccccc2)n1C	7	-11	7	0%	-1.3	-27%
CCN(CC)S(=O)(=O)c1ccc(C(=O)Nc2cc(C)cc(C)c2)cc1	2	-12	6	3%	0.9	-8%
C=CCOC(=O)C1=C[C@@H](c2ccc(Br)cc2)[C@H](CCCO)[C@@H](OCC)O1	6	8	5	-3%	3.2	28%
CN(CC(=O)Nc1cccc(F)c1)C(=O)c1ccc2c(c1)S(=O)(=O)N=C1CCCCCN12	4	-12	4	12%	-5.1	9%
Nc1nc(SCC(=O)NC2CCCCC2)n[nH]1	0	-9	5	1%	2.0	-82%[inhibitor]

3 entries picked at random from the list so far, as already listed:
SMILES	CtBP-E1A inh	D2 potentiator	Six1-Eya2 inh	gsp antag	D2 agonist	gsp agonist
c1ccc(CCn2nnnc2C(c2cccnc2)N2CCOCC2)cc1 (centres undefined)	4	-3	14	7%	-5.9	-1%[15.4 µM]
Cc1nc2ccccc2n2c(-c3ccccc3)c3c(=O)n(C)c(=O)n(C)c3c12	49	-2	43	12%	-8.2	-1%[15.4 µM]
CCc1ccc(C(c2ccc(CC)cc2)C(Cl)Cl)cc1	66	-4	22	-11%	2.9	nt
